HCMV UL50-53 inh = cytomegalovirus nuclear egress complex inhibition | inhibition, % (concentration not given with the values) | actives 0.15% (n = 190,000) | HTRF UL50-UL53 interaction, normalized percent inhibition;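 active = both replicates at 50% or more, plus weaker picks with an unusually low signal ratio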;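 note: stock transfer was 100 nL into about 20 µL; 0% = negative control wells and 100% = wells with untagged competitor protein; inactives centre near -12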
GIV-Gai inh = blocks GIV peptide binding to rat Galpha-i3; actives 0.42% (n = 210,000); Galpha-i3/FITC-GIV peptide fluorescence polarization, 90 min; stronger effect = lower value; scaled: aluminum fluoride 0%, vehicle 100%; percent of control (FP), % (concentration not given with the values); AID 1224905; P08753;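 active = replicate mean at 85% of control or lower, very high polarization wells dropped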;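 note: wells of about 15 µL received 100 nL stock; the first replicate is given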
Target sequence (P08753 whole entry, looked up): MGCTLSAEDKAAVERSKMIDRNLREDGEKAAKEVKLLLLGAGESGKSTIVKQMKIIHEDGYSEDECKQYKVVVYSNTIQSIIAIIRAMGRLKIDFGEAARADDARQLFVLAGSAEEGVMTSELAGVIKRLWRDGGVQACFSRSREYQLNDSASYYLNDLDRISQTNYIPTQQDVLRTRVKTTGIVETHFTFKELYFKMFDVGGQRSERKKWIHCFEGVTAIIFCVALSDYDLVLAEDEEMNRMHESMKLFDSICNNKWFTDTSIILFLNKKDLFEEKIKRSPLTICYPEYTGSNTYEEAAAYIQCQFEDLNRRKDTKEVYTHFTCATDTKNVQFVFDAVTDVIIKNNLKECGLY
Sa growth inh = blocks Staphylococcus aureus growth; actives 0.53% (n = 170,000); relative growth, % (concentration not given with the values); AID 720641; S. aureus RN4220 growth, OD600, 20 h, 42 °C; stronger effect = lower value;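 active = growth at 42 °C up to 50% and 20 or more points under that at 30 °C, or under 10% at both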;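 note: 300 nL library stock went into each well; scaled to the means of positive and negative controls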
Sa growth inh second temp = further read-out of Sa growth inh, marked with its call; relative growth, %; measured here: growth at 30 °C;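 optical density after 20 h as mean of two plates; 100% = untreated growth and lower means inhibition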
Active calls of the source: *; . = not tested or not shown; & = joins results of further samples. Compounds were not picked by outcome (roughly 0.82% active in at least one column).

SMILES	HCMV UL50-53 inh	GIV-Gai inh	Sa growth inh	Sa growth inh second temp
O=C(Nc1ccc(S(=O)(=O)N2CCCC2)cc1)C1COc2ccccc2O1 (centres undefined)	-23	101	105	90
C=CCN(CC=C)C(=O)CSc1ccc(OCC)cc1	-3	.	110	98
COc1ccc(/C=N/n2cnc3scc(-c4cccs4)c3c2=O)cc1OC	1	.	103	92
O=C(c1cc(Br)cc2c1OCC2)N1CCCCC1	5	110	90	91
CC(C)c1ccc(N(CC(N)=O)S(C)(=O)=O)cc1	6	94	89	102
Cc1nc(C(F)(F)F)ccc1C(=O)Oc1ccccc1N1CCOCC1	-11	98	105	84
Cc1ccc2c(cnn2C(=O)CCC(=O)N2CCCCC2)c1	-7	108	99	91
COc1ccccc1Cn1cnc2c([nH]c3ccc(F)cc32)c1=O	-14	112	.	.
CCn1c(C(=O)N2CCC(C(=O)NCc3ccccc3)CC2)cc2sccc21	.	106	95	83
CC(NS(=O)(=O)c1ccc(Br)cc1)C(=O)NCc1ccco1 (centres undefined)	12	105	87	81
Cc1ccsc1CCNC(=O)c1cc(S(=O)(=O)N2CCCCC2)c[nH]1	.	102	88	74
O=C(CCc1nc(-c2ccncc2)no1)Nc1cccnc1	1	105	.	.
COc1ccc(NC(=O)CSc2oc(-c3cccs3)nc2S(=O)(=O)c2ccc(C)cc2)c(OC)c1	-6	105	83	84
CC1CCCN(C(=O)c2cccc(S(=O)(=O)N3CCCC3)c2)C1 (centres undefined)	-25	.	97	89
O=c1oc2cc(S(=O)(=O)NCCCO)ccc2c2ccc(S(=O)(=O)NCCCO)cc12	-11	104	99	89
CCOc1ccc(-n2c(=O)c3c(C)c(C)sc3n(Cc3ccccc3C)c2=O)cc1	-8	106	86	86
CNC(=O)C(=O)NCC(c1ccc2c(c1)OCO2)N1CCOCC1 (centres undefined)	.	104	113	98
CC(=O)c1cccc(NC(=O)C2CCN(S(=O)(=O)c3ccc4c(c3)oc(=O)n4C)CC2)c1	-29	103	106	92
O=C(/C=C/c1ccc(OC(F)(F)F)cc1)NCc1ccco1	-2	104	112	94
COc1cc2cc3c(=O)oc(-c4ccccc4F)nc3nc2cc1OC	-6	.	117	86
Cc1ccc2nc(-c3cc4ccccc4oc3=O)[nH]c2c1	-62	129	96	76
CC(=O)Nc1ccc(NC(=O)CSc2cn(CC(=O)N(C(C)C)C(C)C)c3ccccc23)cc1	.	106	122	85
CC1CCn2c(nc3cc(C(=O)NCCc4ccc(Cl)cc4)ccc32)C1 (centres undefined)	.	110	96	96
COc1cc2c(cc1OBr)C(Cc1ccc(OC(C)=O)cc1)N(C)C2 (centres undefined)	11	.	97	105
COc1cc2c(cc1OC)CN(Cn1nc(C(F)(F)F)n(C)c1=S)CC2	-40	.	96	91
O=C1CC(c2ccc(Cl)cc2)C2=C(CC(c3cccs3)CC2=O)N1 (centres undefined)	.	97	105	77
COc1ccc(CN=Cc2cc(Cl)cc(Cl)c2O)cc1	-8	99	103	57
CCN(CC)S(=O)(=O)c1cc(C(=O)N2CCCC2)cs1	-29	102	.	.
O=C(CN1C(=O)COc2ccc(S(=O)(=O)NC3CCCC3)cc21)Nc1ccc(Cl)cc1	.	105	83	70
COC(=O)c1ccc(COc2ccc3c(c2)CCC3)o1	-6	97	104	79
N#CC(C#N)=Cc1cn(CC(=O)N2CCOCC2)c2ccccc12	-14	101	95	78
CCOC(=S)Nc1ccc(I)cc1	28	108	84	89
COc1ccc(CC(=O)N=c2sc3ccccc3n2C)cc1S(=O)(=O)N1CCOCC1	-32	.	79	93
COc1ccc2nc(SCC(=O)Nc3cc(NC(=O)CSc4nc5ccc(OC)cc5[nH]4)cc(C(=O)O)c3)[nH]c2c1	19	114	.	.
CC1CCCCN1C(=O)CSc1nnc2sc3ccccc3n12 (centres undefined)	12	101	105	94
CC(C)CNC(=O)COn1nnc2ccc(S(=O)(=O)N(C)C)cc21	1	.	87	93
Cn1cccc1/C=N/n1cnnc1	-19	106	104	104
Cc1ccc(S(=O)(=O)N(CC(=O)O)CC(=O)O)cc1	-13	98	109	92
Cc1ccc(NC(=O)C(Cc2ccccc2)NS(=O)(=O)c2ccc3c(c2)oc(=O)n3C)cc1F (centres undefined)	-16	96	81	78
O=C(COc1ccc(F)cc1)Nc1noc(-c2ccc(Cl)cc2)n1	3	100	.	.
CN(C)/C=C1\C(=O)c2ccc(Cl)cc2N(Cc2c(F)cccc2Cl)S1(=O)=O	17	107	94	91
O=c1c2sccc2n2c(SCc3ccc(Cl)cc3)nnc2n1CC1CCCO1 (centres undefined)	-12	103	.	.
Brc1cc2c(cc1CSc1nnc3ccccn13)OCO2	-17	.	93	90
Cc1cnc(C(=O)OCC(=O)c2ccc3[nH]c(=O)[nH]c3c2)cn1	-15	.	89	86
CCc1ccccc1Nc1sc(C(=O)c2cccc(OC)c2)c(N)c1S(=O)(=O)c1ccccc1	-8	106	119	98
CN(C(=O)c1cc2c(=O)oc3ccccc3c2n1C)c1cccc(Cl)c1	2	102	.	.
O=S(=O)(NCCc1csc2nc(-c3ccc(F)cc3)nn12)c1ccc(Oc2ccccc2)cc1	.	101	155	81
O=C(c1cc2c(s1)-c1ccsc1CC2)N1CCN(c2ccccn2)CC1	-9	109	.	.
COc1cc2c(cc1OC)C(c1ccccc1)=NC1(CCCC1)C2	-16	103&101	.	.
O=C(O)CCc1nc2cccnc2n1C1CC1	-22&1	96&101	81	81
CCOc1ccccc1NC(=O)CC1SC(=N)N(c2ccccc2)C1=O (centres undefined)	8	99	100	71
Cc1oc2c(c1C(=O)NC(C)c1ccccc1)C(=O)c1ccccc1C2=O (centres undefined)	-45	102	9.3*	14*
CC(=O)c1cccc(NC(=O)Cn2c(SCC(=O)Nc3ccc(F)cc3)nc3ccccc32)c1	.	102	98	80
Cc1ccc(C2Nc3cc(C)c(C)cc3-n3c(-c4ccccc4)c4c(=O)n(C)c(=O)n(C)c4c32)o1 (centres undefined)	-11	100	108	93
Cc1ccc(-n2ncc3c(N4CCN(C)CC4)ncnc32)cc1Cl	.	101	109	87
CC1CC(=O)C2=C(C1)OC(N)=C(C#N)C2c1ccccc1 (centres undefined)	-7	103	107	94
Cc1cc(C)c(C(=O)Nc2cccnc2)c(CC(C)(C)C(=O)O)c1	2	110	94	97
CCOC(=O)c1cccc(NC(=O)c2ccc3snnc3c2)c1	-5	109	109	82
O=C(Cn1c(=O)nc(-c2ccccc2)c2ccccc21)NCCc1ccc(Cl)cc1	.	109	113	94
C[C@@H](NC(=O)c1cccnc1)c1ccccc1	-9&4	109&104	96	90

Next section:
SMILES	HCMV UL50-53 inh	GIV-Gai inh	Sa growth inh	Sa growth inh second temp
O=C(Nc1c(F)cccc1F)c1cccc(Oc2ccccc2)c1	-34	.	92	70
CN(C)c1ccc(CNC(=O)CCC(=O)N2CCSc3ncccc32)cc1	-44	103	106	99
CCOc1ccc(NC(=O)Nc2ccc3snnc3c2)cc1	-14&-9	106&107	101	85
O=C1C=C(NC2CC2)C2(CCCCC2)O1	-8	110	86	81
CC(C)NC(=O)C1(O)c2ccccc2NC(=O)N1c1ccc(Cl)c(Cl)c1 (centres undefined)	.	99	95	87
CC1CC(C)CN(C(=O)c2cccs2)C1 (centres undefined)	-10	.	84	83
CCOc1cccc2cc(-c3cn4c(n3)sc3ccccc34)c(=O)oc12	.	104	87	84
COC(=O)CSc1ncn(-c2ccccc2)n1	-16	101	112	87
CN(C)c1ccc(CN(Cc2ccco2)C(=O)c2ccc(C(C)(C)C)cc2)cc1	-14	104	104	82
COc1cc(Cl)c(C)cc1NC(=O)CCc1c(C)nc2cc(-c3cccc(F)c3)nn2c1C	-22	102	89	99
CCc1ccc(NC(=O)Nc2nnc(N3CCCCC3C)s2)cc1 (centres undefined)	-13	105	109	97
COc1ccc2c(c1)cc(C(=O)Nc1ccccc1OC)n2C	-6	99	.	.
CCc1nnc2c(NCCCO)nc3ccccc3n12	3	106	.	.
C=CCOc1cc(=O)[nH]c2ccccc12	3	102	92	89
Cc1ccc(S(=O)(=O)c2c(C(=O)c3ccccc3)cnc3cc4c(cc23)OCO4)cc1	-21	96	.	.
CN(C)C(=O)COC(=O)c1ccccc1I	11	.	104	94
CCOc1ccc(N=C2SC(C(=O)O)CC(=O)N2CCc2ccc(OC)c(OC)c2)cc1 (centres undefined)	5	105	.	.
Cc1ccc(C)c(-n2nnnc2SCC(=O)N=c2sc3ccccc3n2C)c1	-5	.	88	52

Among those listed so far, these contain a Cl atom:
SMILES	HCMV UL50-53 inh	GIV-Gai inh	Sa growth inh	Sa growth inh second temp
CC1CCn2c(nc3cc(C(=O)NCCc4ccc(Cl)cc4)ccc32)C1 (centres undefined)	.	110	96	96
O=C1CC(c2ccc(Cl)cc2)C2=C(CC(c3cccs3)CC2=O)N1 (centres undefined)	.	97	105	77
COc1ccc(CN=Cc2cc(Cl)cc(Cl)c2O)cc1	-8	99	103	57
O=C(CN1C(=O)COc2ccc(S(=O)(=O)NC3CCCC3)cc21)Nc1ccc(Cl)cc1	.	105	83	70
O=C(COc1ccc(F)cc1)Nc1noc(-c2ccc(Cl)cc2)n1	3	100	.	.
CN(C)/C=C1\C(=O)c2ccc(Cl)cc2N(Cc2c(F)cccc2Cl)S1(=O)=O	17	107	94	91
O=c1c2sccc2n2c(SCc3ccc(Cl)cc3)nnc2n1CC1CCCO1 (centres undefined)	-12	103	.	.
CN(C(=O)c1cc2c(=O)oc3ccccc3c2n1C)c1cccc(Cl)c1	2	102	.	.
Cc1ccc(-n2ncc3c(N4CCN(C)CC4)ncnc32)cc1Cl	.	101	109	87
O=C(Cn1c(=O)nc(-c2ccccc2)c2ccccc21)NCCc1ccc(Cl)cc1	.	109	113	94
CC(C)NC(=O)C1(O)c2ccccc2NC(=O)N1c1ccc(Cl)c(Cl)c1 (centres undefined)	.	99	95	87
COc1cc(Cl)c(C)cc1NC(=O)CCc1c(C)nc2cc(-c3cccc(F)c3)nn2c1C	-22	102	89	99

Screening results from PubChem.
